PK Bst: modulators of Bacillus stearothermophilus pyruvate kinase. partly purified Bacillus stearothermophilus pyruvate kinase, luminescence ATP production; ribose 5-phosphate activator present at AC10. Potency, µM. 51,000 compounds, 1.2% hits. AID 361; in the data active means potency below about 11 µM; inconclusive means mostly about 12 µM to 25 µM; inactive means weaker than that;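 the screen sought inhibitors and activators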;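 note: potency is the fitted concentration of half-maximal effect; scaled between full activation by ribose 5 phosphate and full inhibition by luteolin; about four in five hits inhibit and the cells do not say which; series up to 57 µM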
YjeE inh: inhibitors of E. coli YjeE (TsaE); 71,000 compounds, 0.05% hits; AID 605; P0AF67; purified YjeE, fluorescence polarisation of a bound ADP probe; Potency, µM; active = well fitted falling curve; inconclusive = weaker or top-dose-only fall, or a rising curve; inactive = flat or poorly fitted curve;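 note: top concentration of the series not given in the record; excess ADP was the control for the full effect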
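Purified YjeE (10 uM) with BODIPY Texas Red-labeled ADP probe (2 uM); compounds pin-transferred, 15 min at room temperature. Binding inhibition read as decreased fluorescence polarization; ADP titration as control.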
Active calls of the source: *; i = inactive; ? = inconclusive; / = no result given.

SMILES	PK Bst	YjeE inh
CCC(=O)N1CCc2cc(Br)cc(S(=O)(=O)NCC3CCCN3CC)c21 (stereo not drawn)	>57	i
O=C(NCCCn1ccnc1)c1cc(S(=O)(=O)N2CCOCC2)c(Cl)cc1Cl	>57	i
Cc1cc(-n2c(C)cc(C(=O)CN3C(=O)NC4(CCCC4)C3=O)c2C)no1	>57	i
Cc1c(NC(=O)COC(=O)c2cc3c4ccccc4n(C)c3s2)c(=O)n(-c2ccccc2)n1C	/	i
CCCCN1CSC(=S)N(Cc2ccccc2)C1	/	i
CC1CCN(C(=O)CN2C(=O)C(C)(C)Oc3ccc(C(=O)NC4CCCC4)cc32)CC1	>57	i
COc1cccc(-c2cncnc2NCCN2CCOCC2)c1	/	i
O=C(NCc1ccco1)C(c1ccccc1)N(Cc1cccnc1)C(=O)Cn1nnc2ccccc21 (stereo not drawn)	>57	i
CN1CCN(S(=O)(=O)c2ccc(N(C)CC(=O)Nc3ccc(F)cc3)nc2)CC1	>57	i
N#Cc1cn(-c2ccccc2)nc1-c1ccc2c(c1)OCCO2	>57	i

Profiles, quoted from the list. Values in the order: PK Bst, YjeE inh
Record of `COc1cccc(-c2cncnc2NCCN2CCOCC2)c1` : /, i
Record of `N#Cc1cn(-c2ccccc2)nc1-c1ccc2c(c1)OCCO2` : >57, i
Record of `Cc1cc(-n2c(C)cc(C(=O)CN3C(=O)NC4(CCCC4)C3=O)c2C)no1` : >57, i

Continuation.
SMILES	PK Bst	YjeE inh
CCCCn1nc(C(=O)NC2=NCCS2)c2ccccc2c1=O	>57	i
Cc1ccc(S(=O)(=O)N2CCC(C(=O)N3Cc4ccccc4C3)CC2)cc1	?	i
CCCc1nc2oc(C(=O)OCC)c(N)c2c2c1COC(C)(C)C2	>57	i
C=CCn1c(SCC(=O)Nc2cccc(C(=O)OC)c2)nnc1C(C)NC(=O)c1cccs1 (stereo not drawn)	>57	i
O=c1c(-c2cccc(Cl)c2)nc2cncnc2n1-c1ccccc1	/	i
CCn1cc(CNC(=O)c2cc(Cl)ccc2OC)c(C)n1	/	i
CC(C(=O)NCc1cccnc1)N1C(=O)c2ccccc2C1=O (stereo not drawn)	>57	i
COC(=O)C1=C(C)NC2=C(C(=O)CC(C)(C)C2)C1c1cccc(C)n1 (stereo not drawn)	>57	i
COCCNc1cc(-c2c(C)noc2C)ncn1	/	i
CCN1CCN(C(CNC(=O)c2ccc3c(c2)OCO3)c2cccnc2)CC1 (stereo not drawn)	/	i
CCOC(=O)c1sc(NC(=O)C2CC2)cc1C	/	i
CCOc1ncccc1C(=O)Nc1ccccc1C(=O)NCc1ccc2c(c1)OCO2	>57	i
O=C(Nc1c(C(=O)O)oc2ccc(Br)cc12)c1ccccc1	/	i
CC(C)CCn1c(SCc2ccc(Cl)cc2)nc2c1c(=O)[nH]c(=O)n2C	>57	i
CCSC1(SCC)N=C(N)C2(C#N)C(c3ccccc3)NC3=C(CCC3)C12C#N (stereo not drawn)	i	i
COc1ccc(OC)c(S(=O)(=O)NCc2ccccc2)c1	>57	i
COC(=O)CSc1nc2sc3c(c2c(=O)n1-c1ccccc1)CCN(C)C3	>57	i
CC1CCN(CC[C@@H]2CCCN2S(=O)(=O)c2cccc(O)c2)CC1	/	i
Cc1ccc(-n2ncc3c(=O)n(CC(=O)OCc4ccccc4)cnc32)cc1	>57	i
CCCCS/C(=C(/C#N)C(N)=O)c1cc2c([nH]1)CCCC2	>57	i

Some values from the list:
Cc1ccc(-n2ncc3c(=O)n(CC(=O)OCc4ccccc4)cnc32)cc1 in PK Bst = >57
COC(=O)CSc1nc2sc3c(c2c(=O)n1-c1ccccc1)CCN(C)C3 in PK Bst = >57

Carrying on:
SMILES	PK Bst	YjeE inh
CC1(CC(=O)O)C(=O)N=C2C=CC=CN21 (stereo not drawn)	>57	i
O=C(CCC1CCCC1)N1CCN(S(=O)(=O)Cc2ccccc2)CC1	/	i
O=C(c1cc(-c2ccccc2)on1)N1CCCC1	>57	i
O=C(NCCCN1CCOCC1)c1cc(-c2ccccc2)on1	>57	i
N#CC1=C2SCN(c3ccccc3)CN2C(=O)CC1c1cccs1 (stereo not drawn)	>57	i
COC(=O)c1cn(NC(=O)c2cccc(N(C)C)c2)c(=O)c2ccccc12	>57	i
Cc1ccc(-c2nnn(CC(=O)N(c3cccc(O)c3)C(C(=O)NC(C)(C)C)c3cccs3)n2)o1 (stereo not drawn)	>57	i
CCCCn1c(CN2CCOCC2)nc2c1c(=O)n(C)c(=O)n2C	/	i
CN(C)CC(C(=O)c1ccccc1)c1ccccc1 (stereo not drawn)	>57	i
O=C(COc1ccc(Br)cc1CO)Nc1ccccc1F	>57	i
CCOC(=O)c1cc(-c2cccnc2)nn1-c1ccccn1	>57	i
O=C(CCN1CCOCC1)Nc1cccc(Br)c1	>57	i
COc1ccccc1NC(=O)CSc1nnc(CNC(=O)c2ccco2)o1	>57	i
COc1ccccc1-c1cc(C(=O)N2CCCCC2)no1	/	i
Cc1nnc(SCC(=O)N2CC(=O)Nc3ccccc32)n1-c1ccccc1	>57	i
CCC(O)CNc1nc(SC)nc2sc3c(c12)CCN(C)C3 (stereo not drawn)	>57	i
Cc1cnc(CNc2ncncc2-c2ccc(N(C)C)cc2)cn1	/	i
O=C(Cn1cnc2c(oc3ccccc32)c1=O)NCC1CCCO1 (stereo not drawn)	>57	i
Cc1cccc(OCCCCCNCCO)c1	/	i
COC(=O)[C@H](C)[C@@H]1C[C@@]1(C)[C@@H](NC(=O)OCc1ccccc1)c1ccccc1	/	i
COc1ccc(OC)c(C(=O)C2COC(=O)C2)c1 (stereo not drawn)	>57	i
O=C(Nc1nnc(N2CCCCCC2)s1)c1cc(-c2ccc(Br)cc2)on1	/	i
COc1cccc(NC(=O)c2cccc(OC)c2OC)c1	/	i
Cc1ccc(N2OC3C(=O)NC(=O)C3C2c2ccco2)cc1 (stereo not drawn)	/	i
COCCn1cnc2c(c1=O)c1nc3ccccc3nc1n2/N=C/c1cccc(OC)c1OC	3.6*	i
COc1ccc(NC(=O)CC2Oc3ccc(C)cc3NC2=O)cc1 (stereo not drawn)	/	i
CC(C)(C)n1ncc2c(=O)n(Cc3c(F)cccc3Cl)cnc21	9.9*	i
Cc1c(NC(=O)c2cc(=O)[nH]c(=O)[nH]2)c(=O)n(-c2ccccc2)n1C	>57	i
COc1ccc(OCC(=O)Nc2cccc(-c3nc4ccccc4o3)c2)cc1	/	i
O=C(NCCO)c1ccc(Cl)cc1	/	i

Structures listed above printed as active in PK Bst:
SMILES	PK Bst	YjeE inh
COCCn1cnc2c(c1=O)c1nc3ccccc3nc1n2/N=C/c1cccc(OC)c1OC	3.6*	i
CC(C)(C)n1ncc2c(=O)n(Cc3c(F)cccc3Cl)cnc21	9.9*	i

Next entries.
SMILES	PK Bst	YjeE inh
COC(=O)c1ccc(C2c3c(oc4ccccc4c3=O)C(=O)N2CCCN2CCOCC2)cc1 (stereo not drawn)	/	i
CCOC(=O)CSc1ncnc2c1cnn2-c1ccc(Cl)cc1	>57	i
Cc1ccc2[nH]c(=O)c3cc(C(=O)NCCN4CCN(C)CC4)sc3c2c1	/	i
O=C(COC(=O)c1ccc(N2CCCC2=O)cc1)NCc1ccco1	>57	i
CCOc1ccc(Cn2nnc(C(=O)NCCc3ccccc3)c2N)cc1	/	i
N#CCCn1c(=O)c(-c2cccs2)nc2cnc(OCc3ccccc3)nc21	/	?
CCCCN=c1sc(C(=O)OC)cc(=O)n1CCCC	>57	i
COC(=O)c1ccc(CSc2nnnn2C)o1	>57	i
Cn1c(CCNC(=O)c2ccc(F)cc2)nc2ccccc21	>57	i
CCOc1cc(S(=O)(=O)NCc2ccc3c(c2)OCO3)c(C)cc1C	>57	i
O=C(NC1CCCCCCC1)c1ccc(CNc2c(N3CCOCC3)c(=O)c2=O)cc1	/	i
Cc1ccc(-n2c(SCC(=O)Nc3ccc4c(c3)OCO4)nnc2-c2cccs2)cc1	>57	i
COc1ccc(NC(=O)c2ccco2)cc1NC(=O)c1cccc(OC(C)C)c1	>57	i
Cc1ccsc1-c1nc(CSCC(=O)N2CCN(c3ccccc3)CC2)c(C)o1	/	i
Cc1cccc(OCCC(=O)Nc2c(C)n(C)n(-c3ccccc3)c2=O)c1	>57	i
CS(=O)(=O)Nc1cccc(-c2cncnc2NCc2ccccc2)c1	/	i
Cc1cc(SCC(=O)c2ccccc2)nc2ccccc12	/	i
O=c1c(-c2cc(F)cc(F)c2)nc2cnc(N3CCNCC3)nc2n1Cc1ccc(F)cc1	/	?
CCCCCOC(=O)C1[C@H]2C(=O)N(c3ccccc3CC)C[C@]23C=C[C@H]1O3 (stereo partly drawn)	>57	i
COc1cccc(-c2nc(CSCC(=O)NCC3CCCO3)c(C)o2)c1 (stereo not drawn)	>57	i

5 successive compounds already listed:
SMILES	PK Bst	YjeE inh
CS(=O)(=O)Nc1cccc(-c2cncnc2NCc2ccccc2)c1	/	i
Cc1cc(SCC(=O)c2ccccc2)nc2ccccc12	/	i
O=c1c(-c2cc(F)cc(F)c2)nc2cnc(N3CCNCC3)nc2n1Cc1ccc(F)cc1	/	?
CCCCCOC(=O)C1[C@H]2C(=O)N(c3ccccc3CC)C[C@]23C=C[C@H]1O3 (stereo partly drawn)	>57	i
COc1cccc(-c2nc(CSCC(=O)NCC3CCCO3)c(C)o2)c1 (stereo not drawn)	>57	i

Next compounds follow.
SMILES	PK Bst	YjeE inh
COc1ccc(S(=O)(=O)N2CCC(C(=O)N3CCCCC3)CC2)cc1OC	>57	i
CSCC[C@H](NC(=O)OC(C)(C)C)c1nnc(SCC(=O)Nc2ccc(C)cc2C)o1	>57	i
O=S(=O)(N1CCOCC1)N1CCN(c2ccccc2F)CC1	>57	i
CCOC(=O)CNC(=O)CSc1nnc(-c2ccccc2OC)n1CC	>57	i
NC(=O)C[C@@H]1N[C@]2(C(=O)Nc3ccccc32)[C@@H]2C(=O)N(c3cc(C(F)(F)F)ccc3Cl)C(=O)[C@H]12	>57	i
O=C(c1cc(-c2ccc(Cl)cc2)on1)N1CCOCC1	/	i
CC(C)C(c1nnnn1C1CCCC1)N1c2ccccc2CC1C (stereo not drawn)	>57	i
CCOC(=O)c1cc2c(=O)n3ccccc3nc2n(CC2CCCO2)c1=NC(C)=O (stereo not drawn)	>57	i
COc1nc(N(C)C)nc(N(OC)S(=O)(=O)c2ccccc2Cl)n1	>57	i
O=C(CN1C(=O)c2ccccc2S1(=O)=O)NCc1cccnc1	>57	i
Cc1nn(-c2cccc(Cl)c2)c2c1C(c1ccncc1)C(C#N)=C(N)O2 (stereo not drawn)	>26	/
CCOC(=O)NCc1cc(-c2nn(C)c(=O)c3ccccc23)ccc1C	>57	i
CCCN(CCC)C(=O)CC(c1ccc(F)cc1)c1ccco1 (stereo not drawn)	>26	/
CCCC(=O)Nc1ccccc1NC(=O)CN(C)S(=O)(=O)c1ccc(C)cc1	>57	i
CCN(CC)CCCn1c(C)cc2c(c1=O)C(c1cccc(Cl)c1)C(C#N)=C(N)O2 (stereo not drawn)	>26	/
COC(=O)c1ccc(CSc2nc3c(c(=O)n2-c2ccc(C)cc2)SCC3)o1	/	i
Cn1nnnc1SCc1c(F)cccc1F	>57	i
COc1ccccc1N1CCN(C(=O)C2CCC(Cn3c(=S)[nH]c4ccccc4c3=O)CC2)CC1 (stereo not drawn)	>57	i
CNC(=O)c1cc2c(=O)n3cccc(C)c3nc2n(C(C)C)c1=N	>57	i
CCCC(=O)Nc1sc(C(=O)OC)c(C)c1C(N)=O	>57	i
C(=C\c1ccccc1)/CSc1nnc(-c2cnccn2)n1Cc1ccco1	>57	i
Cc1nc(SCC(=O)NCc2ccco2)nc(C)c1C	>57	i
COC(=O)[C@@]1(Cc2ccc(F)cc2)[C@H]2c3cc(C(=O)N4CCCC4)n(CCc4c[nH]c5ccc(OC)cc45)c3C[C@H]2CN1C(=O)c1ccccc1	/	i
Fc1cccc(Cl)c1Cn1nnc2c(NCc3ccccn3)ncnc21	>57	i
CCCC(=O)C1=C(O)C(C(=O)OC)C(C)(C)CC1=Nc1ccccc1 (stereo not drawn)	/	i
COc1ccccc1N1CCN(C(=O)Nc2cccc(C)c2)CC1	>57	i
O=C(NCCOC(=O)C1COc2ccccc2O1)c1cccnc1 (stereo not drawn)	>57	i
CCOC(=O)COc1cc(=O)n(CC)c2ccccc12	/	i
FC(F)(F)c1cccc(N2CCN(c3nnnn3-c3ccccc3)CC2)c1	>57	i
COc1ccc(OC)c(CNc2nc3ccccc3n2CCN2CCCCC2)c1	>57	i
COc1ccccc1OCCCCCc1c(C)n[nH]c1C	/	i
O=C(CNC1C(=O)Nc2ccccc21)Sc1ccccc1 (stereo not drawn)	>26	/
Cc1cc(C(=O)OCC(=O)Nc2nc(-c3ccccc3)cs2)c(C)o1	>57	i
CN1C(=O)C(O)(CC(=O)c2cccc(-n3cccc3)c2)c2ccccc21 (stereo not drawn)	>57	i
COc1ccc(C(=O)N2CC=C(c3ccccc3)CC2)cc1S(=O)(=O)N1CCOCC1	>57	i
O=C(CSc1ncnc2nc[nH]c12)c1ccccc1	/	i
O=C(Nc1c(-c2ccccc2)nc2ccccn12)c1ccco1	>57	i
CCOc1ccccc1N1CCN(Cc2ccc(OC)c(OC)c2OC)CC1	>57	i
CCCCCCN(C(=O)CCCCCN1C(=O)NC(C2CCCCC2)C(C(=O)OCc2ccccc2)=C1C)C(C(=O)NCCCC)c1ccc(OCC(=O)OC)c(C(=O)OC)c1 (stereo not drawn)	/	i
CC(C)(C)n1nnnc1C(c1cccs1)N(Cc1ccccc1)Cc1cccnc1 (stereo not drawn)	>57	i
Cc1cc(-c2ccc(Cl)cc2)n2nc(N)nc2n1	?	i
Cc1sc2ncn(CC(=O)OC(C)C(=O)NC(C)(C)C)c(=O)c2c1C (stereo not drawn)	>57	i

Only part of the results is shown, so the mix of outcomes need not match the whole.
